Assay outcomes (PubChem)
Marburg entry inh: Marburg virus entry inhibition; Marburg virus pseudotyped entry inhibition, cell reporter; control for the full effect not named in the record; about a third of the inactives were read at about 46 µM; Potency, µM (doses to about 37.8 µM), for the others: at the top dose activity change, negative = inhibition, actives largely listed as inhibitors; 1.8% of 300,000 active; AID 540276; active = well fitted inhibition curve with a large enough effect; inconclusive = small, poorly fitted or top-dose-only effect, or effect the other way; inactive = flat fitted curve, though single readings scatter; tested in HEK293 cells; about a fifth of its hits are not listed in these tables; also: % is scaled to controls: 0 for no effect and ±100 for the full control effect; luciferase read-out
LASV entry inh: inhibitors of Lassa virus binding or cell entry | 1.2% of 300,000 active | Potency, µM (doses to about 37.9 µM), without a hit: at the top dose activity change, negative = inhibition, usual class: inhibitors | Lassa virus pseudotype entry inhibition, cell reporter; control for the full effect not named in the record | AID 540256; active means well fitted inhibition curve with a large enough effect; inconclusive means small, poorly fitted or top-dose-only effect, or effect the other way; inactive means flat fitted curve, though single readings scatter; tested in HEK293 cells; also: % is scaled to controls: 0 for no effect and ±100 for the full control effect; nearly all actives have a fitted effect of over 50% in size; luciferase read-out
RE007 growth inh: less growth of the S. pombe RE007 Vpr strain. S. pombe RE007 Vpr strain, BacTiter-Glo ATP luminescence, 24 h; control for the full effect not named in the record. Potency, µM (titrated, usually from 92.2 µM), inactives show top-dose activity change, negative = less growth. 0.21% of 360,000 active. AID 651644; active = well fitted falling curve with a large enough effect; inconclusive = small, poorly fitted or top-dose-only effect; inactive = no such curve, though single readings can be large or run the other way;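 also: % is scaled to controls: 0 for no effect and ±100 for the full control effect; nearly all actives have a fitted effect of over 50% in size; the assay follows cell death caused by Vpr and the record does not say whether a fall means rescue or toxicity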
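Fission yeast strain RE007, carrying one chromosomally integrated HIV-1 vpr copy, was seeded at OD 0.01 in PMG+AL medium with 23 nL pinned compound. After 24 h at 30 °C and 99% humidity, viability was read by BacTiter-Glo luminescence.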
Cruzain noTriton: cruzain (T. cruzi) inhibition without detergent; P25779; purified cruzain, Z-FR-AMC fluorescence, no detergent; Potency, µM, without a hit: max response, negative = inhibition, most hits filed as inhibitors; 2.3% of 200,000 active; AID 1476;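 also: plate controls were enzyme without inhibitor for no effect and buffer without enzyme for full effect; nearly all actives have a fitted effect of over 40% in size; top concentration of the series not given in the record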
Target sequence (P25779 123-467 limits assumed): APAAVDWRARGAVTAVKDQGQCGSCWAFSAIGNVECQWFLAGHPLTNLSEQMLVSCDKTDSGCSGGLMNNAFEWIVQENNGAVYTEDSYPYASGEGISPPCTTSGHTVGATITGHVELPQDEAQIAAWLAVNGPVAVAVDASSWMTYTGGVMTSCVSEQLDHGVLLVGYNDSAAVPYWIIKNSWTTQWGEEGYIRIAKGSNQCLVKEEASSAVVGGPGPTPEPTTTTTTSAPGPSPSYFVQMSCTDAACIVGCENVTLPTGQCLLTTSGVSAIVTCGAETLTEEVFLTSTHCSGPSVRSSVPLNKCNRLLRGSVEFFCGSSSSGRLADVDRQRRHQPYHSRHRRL
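Detergent-free condition (0.00005% Triton X-100) in acetate buffer pH 5.5 with DTT. 1.5 nM enzyme and compound were pre-mixed 15 min, then 2 uM Z-FR-AMC substrate added; reaction progress from fluorescence change between first and third reads (60 s).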
Cruzain inh Det: inhibitors of Trypanosoma cruzi cruzain with detergent | purified cruzain, Z-FR-AMC fluorescence, 0.01% Triton | Potency, µM, inactives show max response, negative = inhibition, actives largely listed as inhibitors | 0.43% of 200,000 active;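 also: plate controls were neutral wells for no effect and buffer without enzyme for full effect; nearly all actives have a fitted effect of over 40% in size; top concentration of the series not given in the record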
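Read-out: AMC fluorescence (360 nm excitation, 450 nm emission), four reads over 2 min, first-to-third difference used. Conditions: cruzain 1.5 nM, Z-FR-AMC 2 uM, pH 5.5 acetate, 5 mM DTT, 0.01% Triton X-100.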
SARS PLP yeast: inhibitors of SARS-CoV papain-like protease in yeast; AID 485353; 0.19% of 330,000 active; S. cerevisiae expressing SARS-CoV PLpro, growth rescue; control for the full effect not named in the record; Potency, µM (series often up to 32.9 µM), inactives show at the top dose activity, positive = growth rescue; active means well fitted rising curve with a large enough effect; inconclusive means small, poorly fitted or top-dose-only effect; inactive means no such curve, though single readings can be large or run the other way; also: 0% is about no effect; nearly all actives have a fitted effect of over 55% in size; growth read by luminescence after 48 h
NS1 function inh: blocks influenza NS1 protein function; S. cerevisiae slowed by influenza A NS1, growth recovery by OD600; Potency, µM (top dose mostly 46.1 µM), inactives show at the top dose activity, positive = more growth; 0.4% of 270,000 active; AID 2326; active means well fitted rising curve with a large enough effect; inconclusive means small, poorly fitted or top-dose-only effect; inactive means no such curve, though single readings can be large or run the other way; also: nearly all actives have a fitted effect of over 50% in size
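S. cerevisiae expressing influenza A NS1, grown in glucose, washed, then diluted 1:100 into pH 6.0 -URA galactose medium with 23 nl compound. Growth recovery read as OD600; NS1-free strain serves as control.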
2A StopGo: FMDV 2A StopGo reporter, luciferase signal | AID 1159524 | Potency, µM (highest dose often 57.9 µM), for inactives: at the top dose signal change, negative = less light | 1.2% of 410,000 active | human cells with a luciferase reporter of 2A StopGo recoding; control for the full effect not named in the record; active = well fitted falling curve with a large enough effect; inconclusive = small, poorly fitted or top-dose-only effect; inactive = no such curve, though single readings can be large or run the other way; tested in HEK293T cells; also: % is scaled to controls: 0 for no effect and ±100 for the full control effect; nearly all actives have a fitted effect of over 45% in size; luciferase light after 4 h
Active calls of the source: *; ? = inconclusive; . = no result given; & = joins results of further samples; [ ] = remark or other dose. Unless noted, calls follow the shape of the dose curve; as a rule, active = well fitted curve in the direction sought with a large enough effect; inconclusive = small, poorly fitted or top-dose-only effect, or another doubt; inactive = no such curve, though single readings can be large; an effect the other way counts as inactive or inconclusive. Potency is read from the fitted curve at half-maximal effect.

cpd	smiles	Marburg entry inh	LASV entry inh	RE007 growth inh	Cruzain noTriton	Cruzain inh Det	SARS PLP yeast	NS1 function inh	2A StopGo
1	COc1ccc(CNC(=O)C(OC(=O)c2ccco2)c2ccc(OC)cc2)cc1 (stereo not drawn)	?	-4.0%	-11.8%	-18.8%	-18.9%	-5.1%	-1.0%	-2.2%
2	CNC(=O)C1CCCN1S(=O)(=O)c1ccc(OC)cc1 (stereo not drawn)	5.6%[46.1 µM]	0.2%	-0.2%	-0.8%	10.0%	1.0%	-2.7%	-9.9%
3	CCOC(=O)N1CCN(S(=O)(=O)c2cc([N+](=O)[O-])ccc2C)CC1	.	.	-0.6%	.	.	-0.8%	7.8%	13.9%
4	CC1(C)OC(=O)C2(Cc3ccccc3N3CCCCC32)C(=O)O1 (stereo not drawn)	0.3%	8.7%	0.4%	1.4%	2.5%	2.8%	-2.5%	7.4%
5	O/N=C(\c1ccc(Cl)cc1Cl)c1ncc(C(F)(F)F)cc1Cl	-19.6%	-24.1%	?	3.2%	-6.7%	-42.4%	-43.8%	-8.5%
6	COc1ccc(C(=O)OCC(=O)NC2CCCC2)cc1OC	-18.8%[46.1 µM]	12.7%[46.1 µM]	-14.8%	.	.	0.1%	-3.0%	-1.4%
7	O=C(Cn1c(=O)oc2cc(S(=O)(=O)NCc3ccccc3)ccc21)Nc1ccc(F)c(Cl)c1	.	8.4%[46.1 µM]	.	-2.3%	-3.1%	.	.	27.2%
8	CCCCOC(=O)Nc1ccccc1C(=O)OC	13.6%[46.1 µM]	0.1%	-2.9%	-6.1%	-1.9%	7.1%	0.4%	2.1%
9	COc1ccc(CNC(C)(C)C)cc1Cl	4.3%	8.8%	12.2%	-6.9%	4.2%	1.9%	12.6%	7.8%
10	Cc1c(Cl)cccc1N1C(=O)C(N2C(=O)c3cccc([N+](=O)[O-])c3C2=O)C1c1cccs1 (stereo not drawn)	-23.0%	-19.8%	13.7%	?	1.4%	-0.5%	?	.
11	COC(=O)c1c(NC(=S)Nc2ccc(CC(=O)O)cc2)sc(C)c1C	10.4%	13.4%	25.8%	7.8%	-11.0%	2.2%	25.1%	0.0%
12	COc1ccc2c(c1)C(NC(C)=O)C(=O)N2CCc1ccccc1 (stereo not drawn)	17.6%[46.1 µM]	-5.9%	-25.6%	.	.	-1.7%	2.9%	15.6%
13	C1CN(c2nc3nonc3nc2N2CCSCC2)CCO1	.	.	-7.7%	.	.	0.6%	7.1%	10.1%
14	Cc1cc(C(F)(F)F)c(C#N)c(=O)[nH]1	14.8%	-5.1%	2.7%	-18.2%	-13.9%	-18.0%	5.3%	-23.3%
15	O=C(CSc1nnc(C2CC2)n1Cc1ccccc1)N1CCN(S(=O)(=O)c2ccccc2)CC1	-3.4%&-3.4%	4.7%	4.9%	10.1%	4.6%	-3.5%	-17.9%	-25.4%
16	COc1ccc(-c2sc3ccccc3c2C#CCO)cc1	.	.	-7.5%	.	.	-31.5%	-71.4%	-23.2%
17	COc1ccccc1Oc1cn[nH]c1-c1ccc(OCC(=O)NN)cc1O	.	.	-0.9%	.	.	1.3%	13.8%	-19.6%
18	COc1cccc(C(=O)Nc2ccccc2C(=O)OCc2cc(=O)n3nc(C4CC4)sc3n2)c1	.	-4.3%[46.1 µM]	.	15.3%	0.9%	.	.	-4.0%
19	COCC(=O)Nc1ccc(S(=O)(=O)Nc2ccccn2)cc1	4.7%[46.1 µM]	7.8%	4.0%	.	.	-0.4%	.	-0.1%
20	CC1(C)C(=O)N(OCc2ccccc2)C(C)(C)C(=O)N1OCc1ccccc1	-4.7%	15.1%	-3.2%	13.0%	-0.8%	-10.2%	-6.3%	0.0%
21	Cc1ccc(S(=O)(=O)N2CCCC2c2nc3ccccc3s2)cc1 (stereo not drawn)	13.0%	9.6%	0.2%	-6.2%	1.1%	-6.0%	-9.3%	-29.5%
22	CCOC(=O)c1cc(-c2ccccc2)n(CCC(=O)Nc2ccc(Cl)c(C(F)(F)F)c2)c1C	.	-24.7%[46.1 µM]	.	-21.8%	-0.6%	.	.	39.8µM*
23	Cc1cc2c(ncn2C(C)C)c(N)c1C	8.0%	4.0%	4.9%[3.69 µM]	-0.3%	-2.5%	-1.3%	-0.4%	-14.1%
24	Cc1cc(N2CCOCC2)nc(N2CCOCC2)n1	-7.1%&-7.1%[46.1 µM]	9.8%	-5.2%	.	.	-2.0%&-0.9%	-58.4%&-2.2%	-1.9%
25	COc1ccccc1N1CCN(C(=O)Cn2ncc3c(=O)oc4ccccc4c32)CC1	1.5%[46.1 µM]	-3.9%[46.1 µM]	.	6.2%	-4.2%	.	.	0.0%
26	Cc1noc(C)c1C(=O)OCC(=O)NCCc1ccc(Cl)cc1	20.1%	4.1%	23.9%	-9.8%	-1.1%	2.1%	-5.2%	18.6%
27	COCCN(C(=O)COC(=O)/C=C/c1ccc2ccccc2n1)c1c(N)n(Cc2ccccc2)c(=O)[nH]c1=O	?	?	-15.8%	.	.	1.7%	-2.1%	?
28	COc1ccc(N2CCN(c3oc(/C=C/c4cccc(OC)c4)nc3C#N)CC2)cc1	2.1%[46.1 µM]	21.8%[46.1 µM]	.	6.1%	4.3%	.	.	-17.3%
29	CC(=O)NS(=O)(=O)c1ccc(N=NN2CCCCC2)cc1	33.4%	0.6%	2.5%	5.7%	-5.7%	?	6.3%	5.6%
30	O=C(O)CCC(=O)N1CCc2cc(S(=O)(=O)NCCc3ccc(Cl)cc3)ccc21	.	.	0.6%	.	.	-2.4%	8.1%	11.6%
31	CC(C(=O)NCc1ccco1)c1ccc([N+](=O)[O-])cc1 (stereo not drawn)	.	.	8.7%	.	.	2.5%	1.6%	-23.1%
32	Cn1c(=O)cc(SCC(=O)NCc2cccnc2)c2ccccc21	-6.9%	-2.0%	-5.2%	-9.0%	-2.7%	9.6%	-4.2%	-2.9%
33	O=S(=O)(/C=C/c1ccccc1)N1CCc2ccccc2C1	.	.	-13.2%	.	.	1.1%	-2.7%	60.6%[activator]
34	COc1cccc(CNC(=O)Cn2c(=O)ccc3cc(S(=O)(=O)N4CCC(C)CC4)ccc32)c1	.	23.8%[46.1 µM]	.	7.0%	-2.4%	.	.	-12.4%
35	CC1Cc2ccccc2N1C(=O)CSc1nnnn1C (stereo not drawn)	10.8%	-1.1%	4.5%	-7.5%	5.0%	6.8%	5.2%	13.8%
36	O=C(Nc1c2ccccc2nc2ccccc12)C(Cl)(Cl)Cl	14.7%	4.8%	1.4%	-13.8%	4.0%	-34.6%	-131.0%	?
37	CCOC(=O)C1=C(CN2CCC(C)CC2)NC(=O)NC1c1ccc(OC(C)C)cc1 (stereo not drawn)	3.1%[46.1 µM]	-16.3%[46.1 µM]	.	-4.5%	0.4%	.	.	?
38	Cc1cc(C)cc(Nc2cc(C(=O)NC3CCCCC3)c3ccccc3n2)c1	4.5%[46.1 µM]	19.0%[46.1 µM]	.	-5.5%	-2.2%	.	.	11.5%
39	CCCC(CCC)=NNC(=O)CN(Cc1ccccc1)S(=O)(=O)c1ccccc1	-1.6%	5.8%	-12.2%	1.3%	-1.8%	9.3%	-4.9%	-11.5%
40	CCN(CC)CCNC(=O)c1cn(CC)c2ccc(S(=O)(=O)N(C)C)cc2c1=O	.	.	-3.2%	1.5%	-2.4%	-8.6%	-6.0%	-23.4%
41	CCOC(=O)C1CCN(C(=O)/C=C/c2ccc3c(c2)OCO3)CC1	-15.4%	2.6%	-12.5%	.	.	-1.8%	-22.5%	60.8%[activator]
42	CCc1[nH]nc(C(=O)N2CCCC(Nc3cccc(F)c3)C2)c1C (stereo not drawn)	21.2%	-14.0%	2.3%	.	.	0.5%	-1.3%	-20.7%
43	C=CCN(CC=C)CCOc1ccccc1[N+](=O)[O-]	?	5.8%	-22.6%	.	.	2.5%	2.3%	-1.7%
44	COc1cccc(CNC(=O)c2nnc(Cc3ccc(Cl)cc3)o2)c1	11.4%[46.1 µM]	-8.1%[46.1 µM]	.	5.7%	-0.6%	.	.	6.3%
45	COc1cccc(CNC(=O)c2cc3ccccn3n2)c1	.	.	14.0%	3.0%	-2.9%	-7.0%	-30.8%	12.3%
46	CN(C(=O)CC(=O)Nc1ccc2nc3n(c(=O)c2c1)CCCCC3)c1ccccc1F	11.6%[46.1 µM]	-7.3%[46.1 µM]	.	-2.7%	-4.4%	.	.	-1.0%
47	O=C(CCCN1C(=O)/C(=C\c2cccs2)SC1=S)Nc1cccc(C(=O)O)c1	40.8%[46.1 µM]	1.2%[46.1 µM]	6.6%	.	.	2.4%	.	12.9%
48	O=C(c1ccc2c(c1)OCO2)N1CCN(S(=O)(=O)c2ccc(Cl)cc2)CC1	9.5%[46.1 µM]	?	-5.7%	.	.	0.0%	-12.7%	-14.7%
49	CC(=O)c1c(C)oc2ccc(N(C(C)=O)S(=O)(=O)c3ccc(F)cc3C)cc12	-21.5%	-2.8%	4.6%	.	.	1.5%	-0.7%	?
50	COC(=O)c1ccc(OC)c(Cn2c(=O)n(-c3cccc(Cl)c3)c(=O)c3c2c2cc(C)ccc2n3C)c1	-15.2%[46.1 µM]	5.0%[46.1 µM]	.	3.4%	-3.0%	.	.	-10.1%
51	COc1ccc(CC(=O)NNS(=O)(=O)c2ccc([N+](=O)[O-])cc2)cc1OC	-3.1%[46.1 µM]	21.0%[46.1 µM]	2.7%	.	.	-0.4%	7.1%	-5.3%
52	O=C1NC(=O)C(CCc2ccccn2)(Cc2ccc3c(c2)OCO3)C(=O)N1CCc1ccccc1 (stereo not drawn)	-29.9%	-7.5%	-8.1%	-0.7%	2.4%	13.2%	3.7%	-21.0%
53	COc1ccccc1CC(=O)Nc1ccc(C(=O)N2CCCCC2)cc1	2.1%	-2.5%	-0.4%	.	.	-2.5%	-3.1%	1.8%
54	CCOc1ccc(N(CC(=O)NCCc2ccc(F)cc2)S(=O)(=O)c2ccccc2)cc1	?	?	-9.1%	.	.	-6.2%	-2.0%	-14.8%
55	CCOC(=O)c1c(NC(=O)c2cc3ccccc3c(=O)o2)sc2c1CCC(C(C)(C)C)C2 (stereo not drawn)	-1.8%[46.1 µM]	16.6%[46.1 µM]	.	6.7%	1.3%	.	.	29.9%

Compounds as they come (roughly 4.8% active in at least one column).
